PrP UTR inh – inhibition of PrP 5' UTR reporter expression | cell-based PrP 5' UTR mRNA reporter, plate reader | inhibition, % (test concentration not listed) | actives 0.35% (n = 340,000) | AID 488862, 2010;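 active = every replicate at 50% or more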;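 note: 0 = median of the neutral control wells; tested in H4 reporter cells; numbers are from one replicate; inactives centre near -14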
Mtb hypoxia inh – PubChem AID 1159583 | M. tuberculosis hypoxia-regulated fluorescent reporter, fluorescence | fluorescence inhibition, % (test concentration not listed) | actives 0.1% (n = 300,000);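 active = 35 to 45% if threefold the growth effect, above 45% if 1.5-fold the growth effect; inactive = the rest, general growth blockers included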;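 note: wells of about 50 µL received 100 nL stock; 0% = vehicle wells and 100% = reference inhibitor wells; whole bacteria with a GFP reporter of the hypoxia response; strong numbers were not always called active; many hits fall short of the cut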
BJeLR viability – MLPCN primary cell-based screen for lethality selective to Ras in HRASV12 cells; BJeLR (HRASV12) viability, CellTiter-Glo ATP luminescence, 48 h; reference of the scale not given here; inhibition, % (test concentration not listed); actives 0.17% (n = 300,000);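 active = replicate mean above 50%; inconclusive = above 50% but judged a plate artefact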;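 note: 50 nL library stock added to about 25 µL; numbers are from one replicate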
Bead autofluor – counter-screen for toxin protease inhibitors: compound fluorescence | compound autofluorescence counterscreen, microsphere flow cytometry; active compounds read high | fluorescence intensity (test concentration not listed) | actives 3.1% (n = 360,000) | AID 624483;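 active = at least 3 SD above the mean of all compounds, about 16000 in these data; inconclusive = too few beads counted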;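 note: 100 nL of 1 mM stock went into each well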
Sa RN4220 lethal – growth inhibition of S. aureus RN4220, primary screen, OD600. 16 h. inhibition, % (test concentration not listed). actives 0.33% (n = 330,000). AID 1259311, 2017;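 active = z-score of -3 or lower and OD600 up to 0.18 on both plates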;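 note: plate controls were untreated cells for no effect and reference antibiotic for full effect; stock transfer was 100 nL into about 80 µL; one replicate is shown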
ugtP null kill – growth inhibition of ugtP-null S. aureus, primary screen, RN4220 ugtP deletion, OD600; actives 0.54% (n = 330,000); growth inhibition, % (concentration not given with the values); 16 h; some inactives read as strong as hits;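 active = z-score under -3 and OD600 up to 0.15 on both plates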;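 note: plate controls were untreated wells for no effect and antibiotic for full effect; wells of about 80 µL received 100 nL stock; the first replicate is given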
Mtb hypoxia inh growth – also measured in Mtb hypoxia inh; calls as there; growth inhibition, %; measured here: M. tuberculosis growth (absorbance);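 0% = vehicle and 100% = reference antibiotic; read after six days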
* = called active by the depositor; ? = inconclusive; . = not tested or not shown.

Screens in order: PrP UTR inh, Mtb hypoxia inh, Mtb hypoxia inh growth, BJeLR viability, Bead autofluor, Sa RN4220 lethal, ugtP null kill
- CC1=C(C(=O)OCc2ccccc2)C(c2ccccc2)NC(=O)N1CCCC(=O)O (centres undefined)
  8, -2, -1, -11, 3872, -3.8, -1
- O=C(Nc1nnc(Cc2ccc(Cl)cc2)s1)c1ccncc1
  ., -3, 4, -6, 5559, -0.1, -6
- COc1cc2c(cc1OC)CN(c1nc(-c3cccnc3)nc3ccccc13)CC2
  -17, 7, 11, 7, 5125, -5.4, -2
- CCc1noc(C)c1C(=O)Nc1nc2ccc(OC)cc2s1
  -24, 5, 0, 2, ?, 5.0, 11
- CCCCCOc1ccc(C(=O)OCC(=O)Nc2cc(C)c(C)cc2[N+](=O)[O-])cc1
  -13, 5, 3, -7, 2194, 4.7, 17
- O=C(NCc1ccc(F)cc1)c1cc2ccccn2n1
  -22, 25, 22, -9, 5236, 7.5, 13
- CC1=C(c2ccccc2)[N+](=O)C2(CCCC2)N1[O-]
  -21, 18, 10, -10, 3191, 4.5, 11
- COc1ccccc1C(=O)Nc1ccc2nc(SCC(=O)N(C)C)sc2c1
  -36, 3, 2, 10, 2515, 0.7, -2
- CCOc1ccc(NC(=O)CN2C(=O)NC(CCSC)C2=O)cc1 (centres undefined)
  -14, -7, -5, 23, 4559, 3.1, 5
- COc1cc(C(C)=O)ccc1OCC(=O)Nc1cc(C)on1
  -49, 8, 3, ., 6061, 0.6, 5
- CC(=O)c1ccc(NC(=O)COC(=O)c2nc(Cl)ccc2Cl)cc1
  -14, 7, 9, -5, 4223, 1.7, 4
- Cc1snc(S(=O)(=O)/C(C#N)=N/Nc2ccc(C(F)(F)F)cc2)c1C#N
  -27, ., ., -6, 2507, ., .
- CCOc1ccc(C(=O)N(Cc2ccc(N(C)C)cc2)C2CCS(=O)(=O)C2)cc1 (centres undefined)
  -5, ., ., -10, 3332, -1.1, 4
- O=S(=O)(c1ccccc1)c1cnc(-c2cccnc2)nc1-c1ccccc1
  -20, 7, 11, 8, 22391*, 8.8, -7
- CCc1cc(=O)oc2c(C)c(OCC(=O)N3CCC(C(=O)O)CC3)ccc12
  -3, ., ., -1, 4074, -0.6, -17
- CCOc1ccc(OCc2ccc(C(=O)N3CCOCC3)cc2)cc1
  -38, -8, 0, 8, 8486, -2.2, -8
- O=C(NN=Cc1cccs1)c1cncc(Br)c1
  ., -3, -11, ., ., 1.6, 6
- Cc1cc(C)c(S(N)(=O)=O)c(C)c1-n1cnnn1
  9, 0, 0, -4, 10891, 2.7, 6
- CC(Sc1nnc(CC(C)c2ccccc2)n1N)C(N)=O (centres undefined)
  -16, 4, 11, -1, 3656, 3.3, -2
- COC(=O)Cn1cc(C=NNC(=O)COc2cccc3cccnc23)c2ccccc21
  ., 6, 8, ., ., -2.4, -9
- CCCc1c(C(=O)Nc2cc(C(C)(C)C)on2)cnn1-c1ccccc1
  -18, 2, 2, -1, 4006, -5.8, -4
- O=C1CC(SC(=Nc2ccccc2)Nc2ccccc2)C(=O)N1c1cccc(Cl)c1 (centres undefined)
  -3, 14, 3, 5, 2973, -28, -5
- Cn1nc(C(=O)Nc2cccc(C(=O)NC3CC3)c2)c2ccccc2c1=O
  -12, 3, 3, ., 8219, 2.6, 2
- CC(C)Cn1c(N)c(C(=O)COC(=O)C2CCCCC2)c(=O)n(C)c1=O
  -15, 8, 6, -1, 3936, 2.9, 2
- O=C(CCNC(=O)c1ccc(Br)cc1)Nc1ncccc1O
  -14, 3, 1, -9, 4816, 2.2, 4
- COC(=O)NN=Cc1cc(Cl)cc(Cl)c1OCc1ccccc1
  ., 1, 4, ., ., -0.1, 1
- COc1cc(OC)c(OC)cc1C=Nn1c(COc2ccccc2)n[nH]c1=S
  ., 9, -1, ., ., 1.2, 17
- Nc1ccc(NC(=O)NC2CCCCC2)cc1[N+](=O)[O-]
  -54, 10, 3, 0, 4140, -2.1, 4
- O=C(O)CNS(=O)(=O)c1ccc2c(c1)Cc1cc(S(=O)(=O)NCC(=O)O)ccc1-2
  -22, ., ., -2, 4145, ., .
- O=C1/C(=C/c2ccc(N3CCOCC3)o2)SC(=Nc2ccccc2)N1CCc1c[nH]c2ccccc12
  -35, 6, 0, 3, 15524, 5.4, -23

Just Sa RN4220 lethal, ugtP null kill and PrP UTR inh, for 2 of the compounds above:
compound	Sa RN4220 lethal	ugtP null kill	PrP UTR inh
COC(=O)NN=Cc1cc(Cl)cc(Cl)c1OCc1ccccc1	-0.1	1	.
COc1ccccc1C(=O)Nc1ccc2nc(SCC(=O)N(C)C)sc2c1	0.7	-2	-36

Following part
Screens in order: PrP UTR inh, Mtb hypoxia inh, Mtb hypoxia inh growth, BJeLR viability, Bead autofluor, Sa RN4220 lethal, ugtP null kill
- COc1ccc(N=Cc2c(O)n(Cc3ccccc3)c(=S)[nH]c2=O)c(OC)c1
  -43, 17, -7, 8, 6171, 2.9, 0
- Oc1ccc(/C=C/c2cnccn2)cc1
  -17, -2, 8, 6, 4462, 1.6, -5
- CC(C)OC(=O)c1cc(C(=O)c2cc(F)ccc2O)coc1=N
  -2, 4, 6, -6, 16808*, 7.3, -7
- CCCC(O)=C1C(=O)CC(c2ccccc2)CC1=NCCc1c(C)[nH]c2ccccc12 (centres undefined)
  ., -2, -4, ., ., -2.5, -1
- COc1ccc(C(C(=O)NC2CCCC2)N(C(=O)c2ccoc2C)c2ccccc2)cc1 (centres undefined)
  -14, -4, -4, 3, 2129, 1.6, -9
- Cc1nn(C(C)(C)C)c(OC(=O)C2CCCC2)c1S(=O)(=O)c1ccccc1
  -4, ., ., 2, 5070, 0.9, 3
- CCCCC1=CC2=CC(=O)C(C)(OC(=O)CC)C(=O)C2=CN1CCc1ccccn1 (centres undefined)
  -19, 14, 9, -17, 2863, 5.0, 3
- COc1cccc(C2/C(=C(/O)c3ccc(F)cc3)C(=O)C(=O)N2CCN(C)C)c1 (centres undefined)
  -15, 3, 3, -4, 4552, 1.1, 3
- COc1cccc(-c2nn3c(-c4cc(C)[nH]n4)nnc3s2)c1
  -3, -1, -3, 0, 3685, 5.5, -3
- O=C1CC2(CCCC2)Oc2ccc(F)cc21
  -39, 2, 8, 7, 4231, 5.6, -5
- O=C(NCc1ccc(Cl)cc1)c1ccc(COCC(F)(F)F)o1
  -8, 8, 6, -6, 4222, 1.6, 7
- CC(CNC(=O)Cn1ccc(NC(=O)OCc2ccccc2)nc1=O)c1ccccc1 (centres undefined)
  -7, 2, 6, ., 3786, -0.6, -5
- CC(C)CCC1(CCNC(C)c2cccs2)CCOC(C)(C)C1 (centres undefined)
  3, ., ., 3, 6430, ., .
- CCOc1cc(/C=C(/C#N)c2nc3ccccc3[nH]2)ccc1Oc1ccc([N+](=O)[O-])cn1
  -38, 15, -1, -4, 7885, 6.6, -10
- COc1cccc(CNCCc2cccc(F)c2)c1OC
  -6, 9, 1, -10, 2949, 3.6, 2
- CCN(CC(=O)NCc1ccc(Cl)cc1)C(=O)c1cc(S(=O)(=O)N2CCOCC2)ccc1C
  -17, 5, 2, ., 4729, 8.2, 5
- COc1cc(CNC(C)(C)CO)ccc1OCC(=O)Nc1ccc(Br)cc1
  -29, 4, 8, 2, 9698, -4.3, -20
- Cc1ccc(C(=O)Nc2ccc(S(=O)(=O)N3CCOCC3)cc2)cc1Br
  ., -8, 6, 5, 5911, -2.5, -7
- CN(C)c1ccc(/C=C2\SC(N3CCCCC3)=NC2=O)cc1
  57*, 8, 3, -14, 4171, 4.2, -1
- Cc1cccc(C(=O)NCC(=O)NCC(c2ccco2)N2CCCCC2)c1 (centres undefined)
  -10, -1, 10, 5, 6928, -0.4, -1
- COc1cc(/C=C(\C#N)C(=O)NCC2CCCO2)ccc1O (centres undefined)
  38, 1, -7, -1, 9844, 4.1, -4
- C[C@H](CO)N1C[C@H](C)[C@H](CN(C)C(=O)Nc2ccc(F)cc2)Oc2ccc(NC(=O)NC3CCCCC3)cc2CC1=O
  -5, 9, 7, ., 3487, -17, 2
- c1nc(N2CCOCC2)c2c3c(sc2n1)CCCC3
  -22, 1, 1, 0, 23015*, 4.8, 5
- COc1ccc(C2c3c(noc3C)CC(C)(O)C2C(C)=O)cc1 (centres undefined)
  -24, 3, -3, -7, 3785, 0.5, 8
- O=C(NCCc1ccc(Cl)cc1)c1ccc2nccnc2c1
  -77, 0, 0, 3, 5572, 4.8, 1
- COC(=O)Cn1c2ccccc2c2nc(=O)cc(C)n21
  -17, 1, 12, 4, 3542, 1.0, 1
- ON=C1CCC(=NO)c2nn(-c3ccc(Cl)cc3Cl)nc21
  ., 14, 12, ., ., 5.1, 11
- CCOc1ccc(NC(=O)CN(C)C(=O)c2ccc(-c3ccc(C(C)=O)cc3)o2)cc1OCC
  -20, 0, 1, -2, 5540, 2.1, 7
- CNC(=O)COC(=O)c1cc2c(s1)CCCC2
  -17, 8, 7, -8, 3962, 2.0, 1
- Cn1c(CC(=O)NNC(=O)c2ccc(F)cc2Cl)nc2ccccc21
  1, -3, 1, ., 7506, -0.5, 1

Part of the list above in order of molecular weight, falling.
Screens in order: PrP UTR inh, Mtb hypoxia inh, Mtb hypoxia inh growth, BJeLR viability, Bead autofluor, Sa RN4220 lethal, ugtP null kill
- COc1ccccc1C(=O)Nc1ccc2nc(SCC(=O)N(C)C)sc2c1
  -36, 3, 2, 10, 2515, 0.7, -2
- O=C(CCNC(=O)c1ccc(Br)cc1)Nc1ncccc1O
  -14, 3, 1, -9, 4816, 2.2, 4
- COC(=O)NN=Cc1cc(Cl)cc(Cl)c1OCc1ccccc1
  ., 1, 4, ., ., -0.1, 1

More structures follow.
Screens in order: PrP UTR inh, Mtb hypoxia inh, Mtb hypoxia inh growth, BJeLR viability, Bead autofluor, Sa RN4220 lethal, ugtP null kill
- CCOC(=O)C1Cc2ccccc2C(=O)O1 (centres undefined)
  -8, 0, 10, -1, 5452, 0.6, -7
- Cc1cccc(C)c1-n1c(C)cc(/C=N/NC(=O)CSc2ncccn2)c1C
  -7, ., ., 3, 9776, ., .
- COc1ccc(NC(=O)C2CCCN2S(=O)(=O)c2cccc3cccnc23)c(OC)c1 (centres undefined)
  -11, ., ., -13, 5077, 6.9, -9
- CCCCCCCC1(C)NC(=O)NC1=O (centres undefined)
  -11, 15, 0, -5, 4180, 3.6, 5
- Cc1ccc(OCCC(=O)OCC(=O)NC(=O)NC2CCCC2)cc1
  -17, 2, 2, -15, 5646, 2.0, 3
- OCC1(Cc2ccccc2)CCCN(Cc2ccn[nH]2)C1 (centres undefined)
  -37, -1, 3, 0, 4320, 2.2, 7
- CCOC(=O)C1CCCN(C(=O)c2csc(-c3ccc4c(c3)CCO4)n2)C1 (centres undefined)
  -33, -8, -8, 4, 5569, 0.6, 1
- O=C(c1cccnc1Nc1ccccc1F)N1CCOCC1
  -19, -2, 6, 7, 2007, 5.5, 6
- COc1ccccc1CNC(=O)c1cc(-c2cccnc2)nc2ccccc12
  2, 15, 11, -6, 4510, 2.4, 11
- Cc1ccc(-c2noc(C3CCCN(C(=O)C4CCCCC4)C3)n2)o1 (centres undefined)
  -20, -2, 0, -1, 8237, 5.0, 12
- Cc1ccc(NC(C)C(=O)NN=Cc2c[nH]c3ccccc23)cc1 (centres undefined)
  ., -9, -8, ., ., 2.8, -3
- N#CCCn1nc(-c2ccccc2)cc1Nc1ccccc1NC(=O)c1cccs1
  6, ., ., 0, ?, -0.2, 7
- CC(C)c1ccc(N=Cc2c(O)c3ccccc3oc2=O)cc1
  -20, 8, 1, 13, 2892, 2.4, 3
- Cc1ccc(S(=O)(=O)/N=C2/NC(=O)/C(=C\c3ccccc3)S2)cc1
  2, 2, 11, ., ?, 46, 33
- CC1(C)CC(=O)/C(=C(\O)CCCN2C(=O)c3ccccc3C2=O)C(=NCC(=O)O)C1
  -15, -2, 17, 2, 5216, 1.7, 1

Whole records, quoted from the list. Screens in order: PrP UTR inh | Mtb hypoxia inh | Mtb hypoxia inh growth | BJeLR viability | Bead autofluor | Sa RN4220 lethal | ugtP null kill
Shown for Cn1c(CC(=O)NNC(=O)c2ccc(F)cc2Cl)nc2ccccc21 = 1 | -3 | 1 | . | 7506 | -0.5 | 1
Shown for C[C@H](CO)N1C[C@H](C)[C@H](CN(C)C(=O)Nc2ccc(F)cc2)Oc2ccc(NC(=O)NC3CCCCC3)cc2CC1=O = -5 | 9 | 7 | . | 3487 | -17 | 2
Shown for CCOC(=O)C1CCCN(C(=O)c2csc(-c3ccc4c(c3)CCO4)n2)C1 (centres undefined) = -33 | -8 | -8 | 4 | 5569 | 0.6 | 1
